FGF22 binding = binders of recombinant human FGF22 by thermal shift; 1.5% of 340,000 active; calls only at 9.99 µM; SYPRO orange fluorescence; percent of sucrose octasulfate shift, DMSO zero;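 active means melting point raised past a set limit in the mean and every replicate; three in four hits are not shown here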
Target sequence (Q9HCT0 whole entry, looked up): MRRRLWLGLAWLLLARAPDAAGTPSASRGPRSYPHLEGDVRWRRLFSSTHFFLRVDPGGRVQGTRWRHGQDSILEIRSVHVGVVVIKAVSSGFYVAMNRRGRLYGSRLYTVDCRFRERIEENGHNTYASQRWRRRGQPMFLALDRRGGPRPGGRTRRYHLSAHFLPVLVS
rRNA inh HTS = selective bacterial rRNA inhibition in E. coli | E. coli WT GFP vs humanized-ribosome RFP mutants, fluorescence, 24 h; stronger effect = lower value; DMSO median 0, no signal -100 | GFP signal change (wild-type ribosome), % (concentration not given with the values) | 1.6% of 350,000 active;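 active means significant combined selectivity score with lowered wild-type GFP, culture density cut under 30%, mutant RFP and density less affected; inactive means any of these conditions unmet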; further: one replicate is shown; some compounds called inactive have numbers as strong as hits
rRNA inh HTS OD600 = second read-out of rRNA inh HTS, no call of its own (marks repeat the call); OD600 change, %; measured here: OD600 growth;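 optical density of the mix in the first replicate; 0 = DMSO median and -100 = no signal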
rRNA inh HTS RFP = also measured in rRNA inh HTS; calls as there; RFP signal change, %; measured here: RFP humanized mutant strains;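 first replicate; 0 = DMSO median and -100 = no signal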
An asterisk follows results filed as active; i = inactive. These rows are one share of the data; count on the stated rates, not on these rows.

FGF22 binding	rRNA inh HTS	rRNA inh HTS OD600	rRNA inh HTS RFP	molecule
i	4.8	3.6	-1.0	O=C(C1CCC1)N1C[C@H]2[C@@H](c3ccccc31)[C@H](CO)N2C(=O)c1ccccc1
i	-2.7	-2.0	1.7	C[C@H](CO)N1C[C@H](C)[C@@H](CN(C)Cc2ccc(C(=O)Nc3ccccc3N)cc2)Oc2ccc(NC(=O)Nc3ccc(C(F)(F)F)cc3)cc2C1=O
i	4.8	8.9	-1.4	COc1ccc(-c2cnc3c(c2)C(=O)N([C@H](C)CO)C[C@@H](C)[C@@H](CN(C)C(=O)Cc2ccccn2)O3)cc1
i	0.3	4.7	0.5	CC(C)NC(=O)N[C@H]1C=C[C@@H](CC(=O)NCCCN(C)C)O[C@@H]1CO
i	1.9	2.4	-2.2	CCCNC(=O)[C@H]1[C@H](CO)[C@H]2Cn3c(ccc(-c4cccc(OC)c4)c3=O)[C@@H]1N2CCC
i	2.6	10.3	-2.4	C[C@@H]1CN([C@H](C)CO)S(=O)(=O)c2ccc(C#CC(C)(C)O)cc2O[C@@H]1CN(C)Cc1ccncc1
i	1.0	4.0	-2.6	O=C(C[C@H]1CC[C@H]2NC[C@H](O)COC[C@@H]2O1)NCc1ccc2c(c1)OCO2
i	0.4	0.4	-1.5	C[C@@H]1CCCCO[C@@H](CN(C)C(=O)CCCN(C)C)[C@H](C)CN([C@H](C)CO)C(=O)c2cc(NC(=O)c3ccccc3)ccc2O1
i	4.9	8.4	1.1	C[C@@H]1CN([C@H](C)CO)C(=O)c2cc(/C=C/c3ccccc3)cnc2O[C@H]1CN(C)C(=O)CN(C)C
i	3.5	2.5	-1.8	COc1ccc(C#Cc2ccc([C@@H]3[C@H]4CN(C(=O)Nc5ccccc5F)CCCCN4[C@H]3CO)cc2)cc1
i	-3.8	-6.8	0.6	Cc1noc(C)c1NC(=O)N[C@H]1C=C[C@@H](CC(=O)Nc2ccc(-c3ccccc3)cc2)O[C@H]1CO
i	3.6	18.1	-2.2	C[C@@H]1CN([C@@H](C)CO)C(=O)c2cc(NC(=O)C3CC3)ccc2O[C@H]1CN(C)Cc1ccncc1
i	-1.7	12.4	-1.2	COCC(=O)N(C)C[C@H]1Oc2ncc(/C=C/c3ccccc3)cc2C(=O)N([C@@H](C)CO)C[C@@H]1C
i	-0.6	5.8	-2.0	O=S(=O)(NC[C@@H]1[C@H](c2ccccc2)[C@@H](CO)N1CC1CC1)c1ccccc1
i	3.7	3.7	-2.6	C[C@@H]1CN([C@@H](C)CO)C(=O)c2cc(NC(=O)Nc3ccc(C(F)(F)F)cc3)ccc2O[C@@H]1CN(C)Cc1ccc(-c2ccccc2)cc1
i	-1.9	2.2	-1.1	C[C@H](CO)N1C[C@H](C)[C@@H](CN(C)C(=O)c2ccncc2)OCCCC[C@H](C)Oc2ccc(NC(=O)NC3CCCCC3)cc2C1=O
i	2.8	-9.8	1.0	Cc1noc(C)c1S(=O)(=O)Nc1ccc2c(c1)C(=O)N([C@H](C)CO)C[C@@H](C)[C@@H](CN(C)Cc1ccccc1)OCCCC[C@H](C)O2
i	-5.6	-10.7	-0.4	O=C(C1CCOCC1)N1C[C@H]2[C@@H](c3ccccc31)[C@@H](CO)N2Cc1ccccc1F
i	3.4	4.9	-3.2	C[C@H](CO)N1C[C@H](C)[C@H](CN(C)C(=O)c2ccccc2F)Oc2ncc(-c3ccc(F)cc3)cc2C1=O
i	1.0	-0.9	-5.9	CCC(=O)Nc1ccc2c(c1)C(=O)N(C)C[C@H](OC)[C@H](C)CN(Cc1ccccc1OC)[C@@H](C)CO2

Other entries follow.
FGF22 binding	rRNA inh HTS	rRNA inh HTS OD600	rRNA inh HTS RFP	molecule
i	3.8	6.7	-1.2	C[C@H](CO)N1C[C@H](C)[C@H](CN(C)S(C)(=O)=O)Oc2ccc(NC(=O)C3CCCCC3)cc2CC1=O
i	-0.8	16.2	-0.5	C[C@H]1CN([C@@H](C)CO)C(=O)Cc2cc(NC(=O)Cn3cnnn3)ccc2O[C@@H]1CN(C)C
i	1.2	-1.0	0.4	C[C@H](CO)N1C[C@H](C)[C@H](CN(C)C(=O)Nc2ccccc2)Oc2ccc(NC(=O)NC3CCCCC3)cc2C1=O
i	2.2	1.6	-0.9	C[C@@H]1CCCCO[C@@H](CN(C)C(=O)Cc2ccccc2)[C@@H](C)CN([C@H](C)CO)C(=O)c2cc(NC(=O)Nc3ccc(C(F)(F)F)cc3)ccc2O1
i	1.6	16.0	3.2	COCc1cc(N2CCN(C(=O)OC(C)(C)C)C[C@@H]2C)ccc1N1CC[C@H](O)C1
i	13.9	15.1	3.9	COc1ccc(-c2c(-c3ccccc3OC)sc3ccccc23)cc1F
i	2.9	7.8	0.2	C[C@@H]1CN([C@H](C)CO)C(=O)c2cccc(NC(=O)c3cnccn3)c2O[C@@H]1CN(C)Cc1ccc2c(c1)OCO2
i	0.0	4.2	0.0	COc1ccccc1NC(=O)N(C)C[C@@H]1Oc2cc(Br)ccc2S(=O)(=O)N([C@H](C)CO)C[C@@H]1C
i	-0.6	7.9	4.1	COc1ccc(NC(=O)Nc2ccc3c(c2)C(=O)N([C@@H](C)CO)C[C@H](C)[C@H](CN(C)Cc2ccc(C(=O)O)cc2)O3)cc1
i	4.3	5.8	-1.4	CC(C)NC(=O)Nc1ccc2c(c1)C(=O)N([C@H](C)CO)C[C@@H](C)[C@H](CN(C)Cc1ccc3c(c1)OCO3)OCCCC[C@H](C)O2
i	-3.1	-7.4	-2.1	CCCNC(=O)N1[C@H](C#N)[C@H](c2ccc(-c3cccnc3)cc2)[C@@H]1CO
i	-2.4	-4.5	1.5	CCC(=O)N1[C@@H](CO)[C@@H](c2ccc(-c3ccc(C#N)cc3)cc2)C12CN(C(C)=O)C2
i	-0.8	1.5	3.2	O=C(C1CC1)N1CC[C@@H]2[C@H](CO)Nc3ccc(Br)cc3[C@@H]21
i	3.3	6.2	9.8	C[C@H](CO)N1C[C@H](C)[C@@H](CN(C)Cc2ccc(-c3ccccc3)cc2)Oc2ccc(NS(=O)(=O)c3ccccc3)cc2CC1=O
i	-5.1	-0.2	1.3	Cc1ccc(S(=O)(=O)N(C)C[C@H]2Oc3ccc(NC(=O)C4CC4)cc3C(=O)N([C@@H](C)CO)C[C@@H]2C)cc1
i	3.1	7.8	1.3	CN1C(=O)c2cc(NC(=O)Nc3ccc(F)cc3)ccc2OC[C@H]2O[C@H](CC(=O)NC3CCC3)CC[C@@H]21
i	-1.5	-0.3	0.6	CN1C(=O)c2cc(NC(=O)c3ccc(F)c(F)c3)ccc2OC[C@@H]2O[C@H](CC(=O)O)CC[C@H]21
i	0.3	-0.3	1.3	CCCN1C[C@H](C)[C@H](OC)CN(C)C(=O)c2ccc(NC(=O)c3cccc(F)c3)cc2OC[C@H]1C
i	-0.4	3.0	-0.4	CCCNC(=O)N[C@H]1C=C[C@H](CC(=O)N2CCN(C)CC2)O[C@@H]1CO
i	-4.4	2.8	0.1	COc1ccc(S(=O)(=O)N(C)C[C@H]2Oc3ccc(N(C)C)cc3C(=O)N([C@@H](C)CO)C[C@H]2C)cc1

Ordered by value in rRNA inh HTS RFP (highest first): some entries from above.
molecule,FGF22 binding,rRNA inh HTS,rRNA inh HTS OD600,rRNA inh HTS RFP
C[C@H](CO)N1C[C@H](C)[C@@H](CN(C)Cc2ccc(-c3ccccc3)cc2)Oc2ccc(NS(=O)(=O)c3ccccc3)cc2CC1=O,i,3.3,6.2,9.8
C[C@@H]1CN([C@H](C)CO)C(=O)c2cccc(NC(=O)c3cnccn3)c2O[C@@H]1CN(C)Cc1ccc2c(c1)OCO2,i,2.9,7.8,0.2
COc1ccc(S(=O)(=O)N(C)C[C@H]2Oc3ccc(N(C)C)cc3C(=O)N([C@@H](C)CO)C[C@H]2C)cc1,i,-4.4,2.8,0.1
C[C@@H]1CCCCO[C@@H](CN(C)C(=O)Cc2ccccc2)[C@@H](C)CN([C@H](C)CO)C(=O)c2cc(NC(=O)Nc3ccc(C(F)(F)F)cc3)ccc2O1,i,2.2,1.6,-0.9
C[C@H](CO)N1C[C@H](C)[C@H](CN(C)S(C)(=O)=O)Oc2ccc(NC(=O)C3CCCCC3)cc2CC1=O,i,3.8,6.7,-1.2
CCCNC(=O)N1[C@H](C#N)[C@H](c2ccc(-c3cccnc3)cc2)[C@@H]1CO,i,-3.1,-7.4,-2.1

Other structures follow:
FGF22 binding	rRNA inh HTS	rRNA inh HTS OD600	rRNA inh HTS RFP	molecule
i	-0.2	-2.9	1.7	CNC[C@H]1Oc2c(NC(=O)Nc3ccccc3)cccc2C(=O)N([C@@H](C)CO)C[C@@H]1C
i	1.6	-2.3	1.1	C[C@@H]1CCCCO[C@H](CN(C)C(=O)CCCN(C)C)[C@@H](C)CN([C@@H](C)CO)C(=O)c2cc(NC(=O)Nc3ccccc3)ccc2O1
i	-0.6	3.2	-1.9	COc1ccc2c3c([nH]c2c1)[C@H](CO)N(C(=O)c1ccncc1)CC31CCN(C(=O)C2CCC2)CC1
i	-31.8	-59.8	24.8	COc1cccc(S(=O)(=O)Nc2ccc3c(c2)[C@H]2C[C@H](CC(=O)NCc4ccc(Cl)cc4)O[C@@H](CO)[C@H]2O3)c1
i	-0.7	5.4	-2.1	COc1ccc(-c2cn(CC[C@@H]3CC[C@@H](NC(=O)c4cnccn4)[C@H](CO)O3)nn2)cc1
i	2.5	3.9	-0.6	CNC[C@H]1OCCCC[C@H](C)Oc2ccc(NC(=O)c3ccncc3)cc2C(=O)N([C@H](C)CO)C[C@@H]1C
i	5.6	8.8	-1.9	CN(C)CC(=O)N[C@@H]1CC[C@H](CCn2cc(C3CCCC3)nn2)O[C@H]1CO
i	1.6	0.7	-0.8	COc1ccccc1CNC(=O)C[C@@H]1C=C[C@H](NC(=O)CN(C)C)[C@H](CO)O1
i	0.6	-22.6	2.9	COc1ccc(S(=O)(=O)Nc2ccc3c(c2)CC(=O)N([C@H](C)CO)C[C@H](C)[C@H](CN(C)Cc2ccccc2)O3)cc1
i	-1.8	-2.7	3.0	N#C[C@@H]1[C@@H](c2ccccc2C2=CCCC2)[C@H](CO)N1C(=O)C1CC1
i	-1.7	11.8	-0.1	CCCNC(=O)N1C[C@@H](O)COC[C@@H]2O[C@@H](CC(=O)N3CCOCC3)CC[C@H]21
i	0.6	0.5	-2.6	Cc1noc(C)c1NC(=O)N(C)C[C@@H]1Oc2c(cccc2N(C)C)C(=O)N([C@@H](C)CO)C[C@H]1C
i	2.6	5.8	-8.1	COc1ccccc1-c1ccc2c(c1)[C@H]1[C@H](CCN1C(=O)C1CCOCC1)[C@H](CO)N2
i	6.0	11.7	-0.3	C[C@H](CO)N1C[C@H](C)[C@@H](CN(C)C(=O)CN(C)C)Oc2cc(Br)ccc2S1(=O)=O
i	-3.1	-0.3	2.0	CC(=O)Nc1ccc2c(c1)C(=O)N(C)[C@@H]1CC[C@H](CC(=O)NCc3ccccc3Cl)O[C@@H]1CO2
i	-0.2	-2.8	-0.7	O=C(NCC[C@H]1CC[C@@H](NS(=O)(=O)c2ccccc2)[C@H](CO)O1)c1ccccc1F
i	1.2	3.2	2.3	COc1cccc(-c2ccc([C@@H]3[C@@H](CO)N4CCCCN(CC5CC5)C[C@@H]34)cc2)c1
i	0.8	0.9	1.5	C/C=C/c1ccc([C@@H]2[C@@H](CO)N(C(=O)C3CC3)[C@H]2CN(C)C(=O)CN(C)C)cc1
i	4.1	11.2	-1.8	CC(C)NC(=O)N(C)C[C@H]1Oc2cc(Br)ccc2S(=O)(=O)N([C@@H](C)CO)C[C@@H]1C
i	-5.5	-8.8	-5.5	C[C@@H]1CN([C@@H](C)CO)C(=O)c2cc(C#CC3(O)CCCC3)cnc2O[C@H]1CN(C)C(=O)Cc1ccccc1

New compounds follow:
FGF22 binding	rRNA inh HTS	rRNA inh HTS OD600	rRNA inh HTS RFP	molecule
i	4.3	-4.9	2.4	COc1ccc(CN(C)C[C@@H]2OCCCC[C@@H](C)Oc3ccc(NC(=O)CCC(F)(F)F)cc3C(=O)N([C@@H](C)CO)C[C@@H]2C)cc1
i	2.0	-0.2	1.4	C[C@H](CO)N1C[C@H](C)[C@@H](CN(C)C(=O)c2ccccc2)OCCCC[C@H](C)Oc2ccc(NC(=O)Nc3ccc(C(F)(F)F)cc3)cc2C1=O
i	2.3	0.1	-1.7	CC(=O)N(C)C[C@@H]1Oc2ncc(C#C[C@@H](C)O)cc2C(=O)N([C@@H](C)CO)C[C@@H]1C
i	-1.5	-3.0	-3.2	CO[C@H]1CN(C)C(=O)c2ccc(NC(=O)C3CC3)cc2OC[C@H](C)N(Cc2cccnc2)C[C@H]1C
i	3.3	12.0	-0.9	C[C@H](CO)N1C[C@H](C)[C@H](CN(C)S(=O)(=O)c2cn(C)cn2)Oc2ccc(NS(C)(=O)=O)cc2CC1=O
i	0.1	-2.5	1.6	CC(=O)Nc1ccc2c(c1)C(=O)N(C)[C@H]1CC[C@H](CC(=O)NCc3ccc(Cl)cc3)O[C@@H]1CO2
i	2.4	-0.3	-3.1	CC(C)C[C@@H]1COCn2nncc2CCCC(=O)N1
i	4.5	8.1	0.0	C[C@@H]1CN([C@H](C)CO)C(=O)c2cc(NC(=O)CCCN(C)C)ccc2O[C@H]1CN(C)C(=O)Nc1ccc(F)cc1
i	4.2	19.9	3.4	CN(C)C(=O)c1ccc(-c2ccc([C@@H]3[C@@H](CO)N4CCCCN(Cc5ccncc5)C[C@H]34)cc2)cc1
i	4.0	14.4	-1.2	C[C@@H]1CN([C@@H](C)CO)C(=O)c2cc(-c3cccc(F)c3)cnc2O[C@H]1CN(C)CC1CCOCC1
i	-57.2	-81.7	-19.3	CCC(=O)N[C@@H]1CC[C@@H](CCNC(=O)Nc2ccc(C(F)(F)F)cc2)O[C@H]1CO
i	-1.4	-5.0	-6.0	C[C@H](CO)N1C[C@H](C)[C@@H](CN(C)Cc2ccc(C(F)(F)F)cc2)OCCCC[C@H](C)Oc2ccc(NC(=O)Nc3ccc(F)cc3)cc2C1=O
